Source: PubChem BioAssay (Fisher Drug Discovery Resource Center)
NPYLR7 agonist = activates Aedes aegypti NPYLR7 receptor. HEK293T NPYLR7/Galpha15, GCaMP6s calcium fluorescence. activation, % at 10 µM. 270,000 tested, 0.15% active. AID 1259423; in the data active = activation above about 40%;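 also: 0% = vehicle and 100% = reference agonist at the receptor; some compounds past the cut are filed as inactive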
NPYLR7 agonist max-min = further read-out of NPYLR7 agonist, marked with its call; activation, %; measured here: Max-Min RFU normalised activation; some inactives read as strong as hits;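 span of the calcium signal over five minutes; 0% = vehicle and 100% = native peptide agonist; compound fluorescence can raise it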
The depositor's hits bear a star; & = joins results of further samples. Some of the compounds tested. The share of hits here may be higher or lower than overall.

SMILES	NPYLR7 agonist	NPYLR7 agonist max-min
Cc1cc(C(=O)Nc2nnc(CC3CCCC3)s2)ccc1[N+](=O)[O-]	3	4
Cc1cc(C)c(CNCC(C)n2cncn2)c(C)c1CO (stereo not given)	-1&-1	-4&-3
Cc1ccc(CN(CCc2ccccc2)C(=O)CN(C(=O)NC(C)(C)C)C2CC2)o1	-3	4
Cc1c(C(=O)Nc2nc3c(s2)CCC3)oc2c1C(=O)CC(C)(C)C2	0	-1
CN(Cc1ccco1)c1nc(C(C)(C)C)nc2c1cnn2C	4	3
CN(CC1Cc2ccccc2O1)c1ccc(-c2nccn2C)nn1 (stereo not given)	4	2
Cc1nc2cc(C(F)(F)F)ccc2n1C1CCN(C(=O)CC2C=CCC2)CC1 (stereo not given)	2	-2
CCCCN1C(=O)CNC1=S	4	0
CC1CN(C(=O)c2cc(-c3ccccc3)nc3cc(C(C)(C)C)nn23)CC(C)O1 (stereo not given)	3	8
COC(=O)c1ccc(CNC(=O)c2ccccn2)cc1	-1	-4
O=C1N=C2OC(C(=O)N3CCOCC3)=CN2CCN1Cc1ccccc1C(F)(F)F	0	-1
O=C(NCC[C@@H]1C[C@@H]2C=C[C@H]1C2)c1cccc(OC2CCN(C(=O)C3CC3)CC2)c1	6	3
Cc1c(Cl)cccc1NC(=O)CSc1nc(N)nc(C2CCC2)n1	4	3
Cc1cccc(C(=O)N2CCN(C(C(=O)NCCCN3CCOCC3)C3CCCC3)CC2)c1 (stereo not given)	-2	5
CC(C)(C)n1ccc2c(cnc3nc(-c4ccncc4)nn32)c1=O	-1	5
O=C(C1COC2(CCCCC2)N1C(=O)c1ccccc1)N1CCCC1 (stereo not given)	-3	8
Cc1nc(SCC(N)=O)c2c3c(sc2n1)CCCC3	4	0
COc1ccc(S(=O)(=O)NCCCn2nc(-c3ccccc3)ccc2=O)cc1F	-2	-2
COc1ccc(NC(=O)c2cnn3c(C(F)(F)F)cc(-c4ccc(F)cc4)nc23)c(OC)c1	-5	-7
CC(C)(C)c1cc2nc(C(=O)N3CCN(c4ccc([N+](=O)[O-])cc4)CC3)cc(-c3ccccc3F)n2n1	-8	2
O=[N+]([O-])c1cnc(Nc2ccc(Cl)cc2)c([N+](=O)[O-])c1	-3	-4
c1ccc(-c2nnc3sc(-c4ccc5c(c4)OCO5)nn23)cc1	5	0
Cc1ccc(-n2c(SCC(=O)NCC3CCCO3)nnc2-c2ccc(F)cc2)cc1 (stereo not given)	5	6
O=S(=O)(N1CCCC1)N1CCn2cncc2C1	12	11
CCN(CCS(=O)(=O)c1cc(Cl)ccc1Cl)CC(=O)NC(C)C	-2	-4
CCc1nc2ccc(C(=O)N(CC)CCN(C)C)cn2c1N(C)C(=O)Nc1ccccc1OC	-6	-8
COC(=O)Cn1c(=NC(=O)c2ccc3ncsc3c2)sc2cc(C)ccc21	5	0
Nc1nc(SCc2cccnc2)[nH]c(=O)c1NC(=O)c1ccc(F)cc1	-6	-7
COCCOc1ccc(C(C)Nc2cc(C)nc(C)n2)cc1OC (stereo not given)	3	2
COC(=O)CCCCC(=O)N1CCN(CC(OCc2ccc(C(F)(F)F)cc2)c2ccc(Cl)cc2)CC1 (stereo not given)	-1	-1
COc1ccc2oc(=O)c(-c3nnc(Nc4cccc(C(F)(F)F)c4)s3)cc2c1	-6	-9
CC(=O)Oc1ccccc1Cn1c(C)c(C(=O)NCc2ccc(C#N)cc2)sc1=O	6	2
OCCN1CCN(C2CCN(C3CC4CCC3C4)CC2)CC1 (stereo not given)	3	1
O=C1C(Cl)=C(N2CCOCC2)C(=O)N1c1ccccc1F	8	7
N#Cc1cccc(CN2CCN3C(C(=O)N4CCCCC4)=COC3=NC2=O)c1	1	1
O=C(NCC1CCCO1)c1sc2cc(F)ccc2c1Cl (stereo not given)	22	14
CCCCCCCCCn1cc(C(C)=O)c(=O)n(C)c1=S	-4	-5
CC(=O)OC(C)(C)C(=O)N1CCN(C(c2ccc(Cl)cc2)c2ccc(Cl)cc2)CC1	0	-6
Cc1nonc1NC(=O)CN1CCOc2ccc(Cl)cc21	-3	-5
Cc1cc(Oc2cnn(C)c(=O)c2Nc2ccc(C(=O)NCCN3CCOCC3)cc2)ccc1Cl	6	8
CC(=O)N(CN1C(=O)c2ccccc2C1=O)c1cccc(Cl)c1	15	19
COc1ccc(C2c3cccn3-c3ccccc3N2C(=O)CN(C(=O)Nc2cccc(Br)c2)C2CC2)cc1 (stereo not given)	28	24
CC(=O)NC(=C(Cl)Cl)S(=O)(=O)c1ccc(C)cc1	0	-4
Cc1ccc(C)c(NC(=O)CC(=O)NCCCN2CCCC2)c1	18	6
O=C(NCCc1ccc(O)cc1)c1ccc(N2CCCC2c2ccccn2)nc1 (stereo not given)	8	11
C=CC[N+]1([C@H]2C[C@H]3[C@@H]4CC[C@H]5C[C@H](O)[C@@H](N6CCOCC6)C[C@]5(C)[C@H]4CC[C@]3(C)[C@H]2OC(C)=O)CCCC1	-12	-18
CNCc1cc(OC)c(OC)cc1SC	12	7
COC(=O)C[C@H]1c2cccnc2C(=O)N(C)[C@@H]1C(=O)N1CCCC1	2	8
CC1CN(C(=O)NCC2Cc3ccccc3O2)CC(c2ccccc2)O1 (stereo not given)	2	-2
CCc1nnc(-c2cc3ccccc3n2CC(=O)NCc2ccccc2)o1	0	0
Oc1cccc(Nc2cc3c(cn2)cc(-c2cccnc2)n3Cc2ccccc2)c1	4	3
Cc1cc(C)cc(S(=O)(=O)N2CCN(c3ncccc3C(=O)NCc3ccc4c(c3)OCO4)CC2)c1	10	10
OCN1C2=NCN(Cc3ccc(Cl)cc3)CN2c2ccccc21	4	1
CCN(CCc1ccccn1)C(=O)c1ccc(Cc2ccccc2)o1	-8	-11
NC(=O)c1nn2c(c1Cl)NC(c1ccco1)CC2C(F)(F)F (stereo not given)	5	-1
C=C1C(=O)OC2CC1C(OC(C)=O)C/C(C)=C/CC/C(C)=C/CC[C@]2(C)O (stereo not given in full)	4	0
COc1cc(Nc2cc3c(cn2)nc(Nc2ccccc2)n3C)cc(C(F)(F)F)c1	8	-3
CCn1c(C(=O)N(C)Cc2cccn2C)cc2ccccc21	5	3
O[C@@H]1CN(c2nc3ccccc3s2)CC[C@H]1c1ccc2c(c1)OCO2	1	1
COc1cccc(CN(CCc2c[nH]c3ccccc23)Cc2nc(C(=O)N3CCCC3)co2)c1	11	11

Full records from above. Order of screens: NPYLR7 agonist, NPYLR7 agonist max-min
C=CC[N+]1([C@H]2C[C@H]3[C@@H]4CC[C@H]5C[C@H](O)[C@@H](N6CCOCC6)C[C@]5(C)[C@H]4CC[C@]3(C)[C@H]2OC(C)=O)CCCC1 is entered as -12, -18
O[C@@H]1CN(c2nc3ccccc3s2)CC[C@H]1c1ccc2c(c1)OCO2 is entered as 1, 1

(cont.)
SMILES	NPYLR7 agonist	NPYLR7 agonist max-min
O=C(c1cccs1)N(CCN1CCOCC1)Cc1cc(Cl)ccc1OCc1nc(CO)cs1	-1	0
c1ccc(-n2ccnc2-c2ccncc2)c(OCC2CCCO2)c1 (stereo not given)	-11	-13
Cc1nc(C)c(CNC(=O)N2CC(C)c3ccccc32)s1 (stereo not given)	5	3
CC(C)(C)C(=O)Nc1c(-c2ccc(F)cc2)nc2ccccn12	0	2
O=C(O)Cn1c(SCCOc2ccccc2F)nc2ccccc21	3	3
COc1cccc(C(CC(=O)NCc2ccc(F)cc2)c2c[nH]c3ccccc23)c1OC (stereo not given)	4	12
CCN(CC)CCn1c2c(c(SCC(=O)Nc3ccc(C)cc3C)nc1=O)CCC2	-5	-7
COc1ccc(CC2CN(CC3CCC(N)CC3)CCO2)cc1 (stereo not given)	13	12
CCCn1c(SC2CCCc3ccccc32)n[nH]c1=O (stereo not given)	5	3
C/C(=N\NC(=O)c1cc(C)[nH]n1)c1cccc(O)c1	6	10
CCOC(=O)CNC(=O)CSc1c(C)cnc2c1c(=O)n(C)c(=O)n2C	3	8
Cc1cccc(-n2ccnc2-c2cnc(-c3ccccn3)nc2)c1	-2	4
O=C(c1ccc(CSc2nnc(-c3ccncc3)n2Cc2ccccc2)cc1)N1CCCC1	6	14
Cc1ccc2c(=O)cc(-c3cccc([N+](=O)[O-])c3)oc2c1	-4	-9
CCOC(=O)C(NC(=O)C1CCN(C(=O)C(C)(C)C)CC1)C1CC1 (stereo not given)	-1	-6
Cc1ccc(Nc2nc(Nc3cccc(F)c3)nc3nccnc23)cc1Cl	1	6
COc1ccccc1-n1c(SCc2ccc(C(=O)N3CCOCC3)cc2)nnc1-c1ccc([N+](=O)[O-])cc1	6	16
O=C(Nc1cccc(-c2cccc(-c3ccc(F)cc3)n2)c1)c1ccc(F)cc1	-1	3
CCc1c(C(=O)NC(CC)c2ccccn2)csc1C (stereo not given)	6	6
COc1ncc(C)cc1NC(=O)c1ccc(C)[nH]c1=O	11	6
COc1ccc(CN2C(=O)CC3(C2=O)C(=O)N(Cc2ccccc2)c2ccc(Cl)cc23)cc1OC (stereo not given)	12	0
Cc1nn2cccnc2c1C(=O)Nc1ccc2c(c1)CCC(=O)N2C	15	8
CC(C(=O)N(C)CCc1ccccn1)N1C(=O)c2cccc3cccc1c23 (stereo not given)	-2	-5
CO[C@H]1CN(C(=O)NC2CCCC2)[C@H]2Cc3c(oc4ccccc34)[C@@H]1C2	14	22
N#Cc1ccc(C(=O)NCc2cc(=O)[nH]c3ccccc23)nc1	1	4
Nc1c2c(-c3cccc(F)c3)nc(N3CCCC3)nc2nn1Cc1ccccc1	4	5
COc1ccc(OC)c(C2CCCN2C(=O)C=Cc2ccccc2Br)c1 (stereo not given)	0	5
CC(Oc1ccc(F)cc1)C(=O)NNC(=O)CSCc1ccccc1 (stereo not given)	19	17
CCn1cc(C(=O)N2CCN(C(=O)c3ccco3)CC2)c2nn(-c3ccccc3)c(=O)c-2c1	4	2
CCOc1cc(C#N)ccc1OCc1cn2ccccc2c1C#N	13	6

Single values from above:
Reading of `COc1ncc(C)cc1NC(=O)c1ccc(C)[nH]c1=O` under NPYLR7 agonist max-min: 6
Reading of `CCOc1cc(C#N)ccc1OCc1cn2ccccc2c1C#N` under NPYLR7 agonist max-min: 6
Reading of `Cc1ccc(Nc2nc(Nc3cccc(F)c3)nc3nccnc23)cc1Cl` under NPYLR7 agonist max-min: 6
Reading of `O=C(Nc1cccc(-c2cccc(-c3ccc(F)cc3)n2)c1)c1ccc(F)cc1` under NPYLR7 agonist: -1
Reading of `Cc1nn2cccnc2c1C(=O)Nc1ccc2c(c1)CCC(=O)N2C` under NPYLR7 agonist: 15
Reading of `CCc1c(C(=O)NC(CC)c2ccccn2)csc1C` (stereo not given) under NPYLR7 agonist: 6
Reading of `COc1ccc(CN2C(=O)CC3(C2=O)C(=O)N(Cc2ccccc2)c2ccc(Cl)cc23)cc1OC` (stereo not given) under NPYLR7 agonist: 12

Looked up by structure from above:
SMILES	NPYLR7 agonist	NPYLR7 agonist max-min
COc1ccc(OC)c(C2CCCN2C(=O)C=Cc2ccccc2Br)c1 (stereo not given)	0	5
COc1ccccc1-n1c(SCc2ccc(C(=O)N3CCOCC3)cc2)nnc1-c1ccc([N+](=O)[O-])cc1	6	16
CO[C@H]1CN(C(=O)NC2CCCC2)[C@H]2Cc3c(oc4ccccc34)[C@@H]1C2	14	22
COc1ncc(C)cc1NC(=O)c1ccc(C)[nH]c1=O	11	6
CC(C(=O)N(C)CCc1ccccn1)N1C(=O)c2cccc3cccc1c23 (stereo not given)	-2	-5
N#Cc1ccc(C(=O)NCc2cc(=O)[nH]c3ccccc23)nc1	1	4

(more compounds)
SMILES	NPYLR7 agonist	NPYLR7 agonist max-min
CCOC(=O)N1CCN(C(=O)Cc2cc(-c3ccc4c(c3)CC(C)O4)on2)CC1 (stereo not given)	0	2
COCCN(CC(=O)Nc1nc(CC(=O)NC(C)c2ccccc2)cs1)C(=O)c1ccccc1Cl (stereo not given)	7	13
O=C1CCN(C(=O)c2ccc(C(=O)c3ccccc3)cc2)CC1	7	4
C/C(Cl)=C/Cn1c(=O)n(C/C=C(/C)Cl)c(=O)n(C/C=C(/C)Cl)c1=O	15	10
CCOC(=O)c1c(NC(=O)C2CC2)sc(C(=O)Nc2ccccc2OC)c1C	-2	-8
Cc1nc(C(=O)NCc2nnc(C(C)C)s2)nn1-c1ccccc1C(C)C	3	1
CCC(C)C(O)CNC(=O)c1cccc2cc[nH]c12 (stereo not given)	2	2
Cc1ccc(NC(=O)c2cnc3sc(C)cn3c2=O)cc1	13	13
COC(=O)CCCC(=O)N1CCCC(N2CCN(c3cccc(Cl)c3)CC2)C1 (stereo not given)	0	-1
CC(CCNC(=O)c1cc(Cn2cnc3ccccc32)[nH]n1)n1ccnc1 (stereo not given)	7	-3
CC(C)OC(=O)c1ccc(NC(=O)CCCC(=O)O)cc1	2	2
COc1ccccc1-n1c(SCc2nc(C(=O)NCCc3ccc(Cl)cc3Cl)cs2)nnc1-c1cccnc1	11	21
CCCCN=C(NC(=O)c1cccc(C(F)(F)F)c1)OCC	-5	5
NC(=O)CSc1nnc(N2CCN(C(=O)COc3ccccc3)CC2)s1	4	4
CCCn1c(=O)c2c(nc3n2CCCN3c2cc(C)cc(C)c2)n(C)c1=O	0	5
Cc1ccc(-c2cc3c(SCC(=O)Nc4nccs4)nccn3n2)cc1	-5	-8
c1cnc2c(-c3nccn3CCn3cccn3)cccc2c1	3	1
COCCCn1c(-c2ccccc2)nc2c(c(=O)c3ccccc3n2C)c1=O	5	-1
CN(CCCS(=O)(=O)c1ccccc1)C1CCCCCCC1	2	2
